TDP1 cell CPT: growth inhibition of DT40 Tdp1-/-;hTDP1 cells with camptothecin (screen for TDP1 inhibitors) | Potency, µM (top dose mostly 46.2 µM), inactives show top-dose activity change, negative = growth inhibition, hits mostly inhibitors | AID 686979 | 12% of 420,000 active | chicken DT40 Tdp1-/-;hTDP1 cells + 20 nM CPT, ATP luminescence, 48 h; note: nearly all actives have a fitted effect of over 55% in size
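Chicken DT40 Tdp1-/- cells stably complemented with human TDP1 were seeded at 400 cells/well in medium containing 20 nM camptothecin, exposed to pin-transferred compounds, and grown at 37 °C for at least 48 hr. Viability was read as ATP luminescence.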
GCN5L2 inh: blocks human GCN5L2 histone acetyltransferase; GCN5L2 HAT assay, ThioGlo1 CoA-SH fluorescence; 0.21% of 390,000 active; Q92830; Potency, µM (series often up to 58.9 µM), without a hit: top-dose activity change, negative = inhibition, usual class: inhibitors
Target sequence (Q92830 whole entry, looked up): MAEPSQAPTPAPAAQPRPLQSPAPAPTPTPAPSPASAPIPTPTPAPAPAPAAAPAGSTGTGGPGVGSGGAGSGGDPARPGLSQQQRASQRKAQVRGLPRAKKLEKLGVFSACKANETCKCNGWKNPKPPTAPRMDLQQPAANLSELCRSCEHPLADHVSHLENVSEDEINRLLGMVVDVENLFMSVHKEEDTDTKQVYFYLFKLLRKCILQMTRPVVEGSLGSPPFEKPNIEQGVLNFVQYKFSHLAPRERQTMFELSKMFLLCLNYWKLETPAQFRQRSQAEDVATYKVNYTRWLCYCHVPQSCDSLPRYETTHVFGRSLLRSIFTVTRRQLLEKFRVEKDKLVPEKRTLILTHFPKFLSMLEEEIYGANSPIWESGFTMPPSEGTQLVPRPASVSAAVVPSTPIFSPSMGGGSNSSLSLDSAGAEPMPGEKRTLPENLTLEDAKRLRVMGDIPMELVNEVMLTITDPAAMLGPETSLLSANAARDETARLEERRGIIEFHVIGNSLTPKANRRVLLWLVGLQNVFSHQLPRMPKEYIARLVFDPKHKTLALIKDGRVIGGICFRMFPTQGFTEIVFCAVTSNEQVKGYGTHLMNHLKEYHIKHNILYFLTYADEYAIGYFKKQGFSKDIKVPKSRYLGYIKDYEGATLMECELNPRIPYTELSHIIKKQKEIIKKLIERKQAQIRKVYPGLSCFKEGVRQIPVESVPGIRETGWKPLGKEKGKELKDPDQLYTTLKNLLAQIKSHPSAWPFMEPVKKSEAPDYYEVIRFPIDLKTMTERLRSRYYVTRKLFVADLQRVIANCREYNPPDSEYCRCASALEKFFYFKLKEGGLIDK
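qHTS, 1536-well. 20nM enzyme, pH 7.5 HEPES/EDTA/Tween-20 buffer; 15 min compound preinc., RT. Start: 75uM H3(1-25), 70uM AcCoA, 50uM ThioGlo1. Read Ex340/Em540 at t=0 (autofluorescence flag) and t=20 min.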
Numbers without * were called inactive; ? = inconclusive; / = no result given; & = joins results of further samples; [ ] = another dose, or the depositor's remark. Calls come from the whole dose curve; as a rule, active = well fitted curve in the direction sought with a large enough effect; inconclusive = small, poorly fitted or top-dose-only effect, or another doubt; inactive = no such curve, though single readings can be large; an effect the other way counts as inactive or inconclusive. % is set by controls: 0 for no effect and ±100 for the full control effect; potency is the fitted concentration of half-maximal effect. The list is partial, and most or all hits are left out here.

cpd	Compound	TDP1 cell CPT	GCN5L2 inh
1	CCOC(=O)c1cnc2c(C)c(-c3ccccc3)[nH]n2c1=O	6.2%	-4.8%
2	CCOC(=O)c1ccc(CNC(=O)CSc2nc(NC(=O)c3ccccc3)c3c(C)c(C)oc3n2)cc1	-12.4%	-7.1%
3	Cc1ccc(CN(Cc2ccco2)C(=O)COc2cccc(C)c2C)o1	16.4µM*	-6.8%
4	CC(C)C(NC(=O)CCNC(=O)c1ccc([N+](=O)[O-])cc1)c1nc2ccccc2[nH]1 (stereo unspecified)	-24.5%	0.2%
5	Cc1ccc2[nH]c(=O)c(CN(Cc3ccccc3Cl)C(=O)N3CCOCC3)cc2c1	?	-2.1%
6	COc1ccc(S(=O)(=O)NCCC(=O)NCc2cccs2)cc1	-7.0%	-3.1%
7	COC(=O)c1c(NC(=O)CSc2nc3ccccc3c(=O)n2-c2ccccc2)sc(C)c1C	-4.0%	-3.0%
8	CCOC(=O)C1=C(COC(=O)c2cc(S(=O)(=O)N(C)C)ccc2C)NC(=O)NC1C (stereo unspecified)	-19.3%	2.2%
9	CCCc1cn(S(=O)(=O)c2ccc(OC)cc2OC)nc1N	15.1%	-5.5%
10	COC(=O)Cc1c(C)nc2nc(NCc3cccc([N+](=O)[O-])c3)[nH]n2c1=O	-14.8%	-2.1%
11	CS(=O)(=O)c1ccc2nc(NC(=O)CS(=O)(=O)c3ccc(Cl)cc3)sc2c1	-23.3%	-5.5%
12	COC(=O)c1cn(-c2ccccc2)nc1-c1cccnc1	-18.1%	-1.8%
13	O=C(CSCc1cnn(-c2ccccc2)c1-n1cccc1)NCc1cccs1	-5.0%	-7.7%
14	CN(C(=O)CSc1nncn1C)C1CCCN(Cc2ccccc2F)C1 (stereo unspecified)	7.4%	-30.8%
15	COc1ccccc1OCC(O)Cn1nc(C)cc1C (stereo unspecified)	1.1%	2.1%
16	O=C(Nc1ccc(C(=O)OCc2cc(=O)n3nc(C4CC4)sc3n2)cc1)c1cccc(F)c1	0.1%	14.6%
17	Cc1ccc2cc3cc(C(=O)NCCCN4CCCCCC4)oc3nc2c1	?	-22.3%
18	CC(C)N1CCCC(CNC(=O)CCc2nnc(CCCCc3ccccc3)o2)C1 (stereo unspecified)	-17.4%	28.0%
19	N#Cc1cccc(NC(=O)COC(=O)c2ccccc2C(=O)c2ccc(Cl)c([N+](=O)[O-])c2)c1	20.6µM*	-9.0%
20	Cc1ccc(OCC(=O)N(C)CC(=O)Nc2ccc(Cl)c(C(F)(F)F)c2)c([N+](=O)[O-])n1	?	1.2%
21	COc1ccc([C@H]2CC(=O)C=C(c3ccccc3)C2)cc1OC	?	-0.5%
22	COC(=O)C1=C(C)NC(=O)NC1c1cn(-c2ccccc2)nc1-c1cccs1 (stereo unspecified)	?	-11.0%
23	CS(=O)(=O)N(CC(=O)Nc1ccccc1C(=O)NCc1ccccc1)c1ccc2c(c1)OCCO2	?	2.9%
24	CCS(=O)(=O)N1CCC(C(=O)NCCCN2CCCC2)CC1	-0.9%	43.6%[activator]
25	CC(=O)Nc1ccc(S(=O)(=O)N2CCN(C34CC5CC(CC(C5)C3)C4)CC2)cc1	-20.0%	-1.0%
26	Cc1ccc(-n2nc3c(c2NC(=O)c2ccc4c(c2)OCO4)CS(=O)(=O)C3)cc1	-3.9%	-7.2%
27	O=c1[nH]c2ccccc2n2c(-c3ccncc3)nnc12	-11.0%	-12.2%
28	COc1ccc(NCC(=O)N/N=C/C2CCCCC2)cc1	0.6%	-4.9%
29	C=Cn1cc[n+](CC(=O)c2ccc(Br)s2)c1	-25.5%	?
30	NC(=O)CCS(=O)(=O)c1ccc(Cl)cc1	2.4%	-3.4%
31	COc1ccc(C(=O)OCC(=O)NCc2ccc3c(c2)OCO3)cc1S(=O)(=O)N1CCOCC1	-16.6%	-1.0%
32	Cc1ccc(C(=O)NCCNc2ncc(C(F)(F)F)cc2Cl)cc1[N+](=O)[O-]	?	-7.2%
33	Cc1ccc(CS(=O)(=O)CCC(=O)NCc2ccc3c(c2)OCO3)cc1	-18.0%	22.6%
34	COc1cccc(-c2cc(C(=O)Nc3cc(C)nn3-c3ccccc3)no2)c1	-5.7%&-14.7%	-5.1%&-1.4%
35	CCOC(=O)C1=C(COC(=O)CCOc2cc(C)ccc2C)NC(=O)NC1C (stereo unspecified)	-4.0%	2.1%
36	CCOC(=O)N1CCC(Nc2c(-c3ccc(C)cc3)c(=O)c2=O)CC1	?	-6.9%

Values by screen from above.
GCN5L2 inh for nos. 2–11, in order: -7.1%, -6.8%, 0.2%, -2.1%, -3.1%, -3.0%, 2.2%, -5.5%, -2.1%, -5.5%
TDP1 cell CPT for nos. 2–11, in order: -12.4%, 16.4µM*, -24.5%, ?, -7.0%, -4.0%, -19.3%, 15.1%, -14.8%, -23.3%

(list continues)
cpd	Compound	TDP1 cell CPT	GCN5L2 inh
37	Cc1ccc(S(=O)(=O)N2CCC(C(=O)N3CCN(c4ccccn4)CC3)CC2)cc1	-24.1%	-10.2%
38	Cc1cc(C)cc(OCCCCCNCCO)c1	-12.7%	-0.8%
39	Clc1ccccc1Oc1cnc2ccccc2n1	-2.3%	-8.2%
40	COc1ccc(-c2noc(-c3ccc(C)cc3)n2)cc1	-14.2%	-10.7%
41	COc1ccc(OCC(=O)N2CCN(C(=O)c3ccc([N+](=O)[O-])cc3)CC2)cc1	1.4%	23.7%
42	CCOCCCNC(=O)C(c1ccc(Cl)cc1)N(Cc1cccs1)C(=O)c1ccccn1 (stereo unspecified)	-27.0%	1.4%
43	O=C(CCN=C1NS(=O)(=O)c2ccccc21)Nc1ccc(Cl)cc1F	-16.6%	-0.8%
44	COC(=O)c1cc2oc(C)cc2n1Cc1cc(C)ccc1C	?	-9.2%
45	COc1ccc(CCNC(=O)CN(c2ccc(C)cc2)S(=O)(=O)c2c(C)noc2C)cc1OC	?	-11.1%
46	Cc1ccc(/C=N/N=C2\SCC(=O)N2CC2CC2)cc1	0.1%	-1.2%
47	Cc1ccc(C(=O)COC(=O)C2CC(=O)N(c3nc(-c4ccccc4)cs3)C2)cc1C (stereo unspecified)	?	2.8%
48	CCN(CC)S(=O)(=O)c1ccc(=O)n(CC(=O)N2Cc3ccccc3CC2C(N)=O)c1 (stereo unspecified)	7.4%	-3.1%
49	CCOc1ccccc1NC(=O)COc1ccc(S(=O)(=O)NC2CCCCC2)cc1	?	-15.7%
50	CCN(CC(=O)NC(C)C)Cc1nc2sc3c(c2c(=O)[nH]1)CCC3	3.26µM*	-7.8%
51	Cc1ccc(OCC(=O)NCCC2=CCCCC2)cc1	5.6%	-8.9%
52	Cc1nc(C)c(-c2csc(N)n2)s1	-2.2%	-1.4%
53	CCCC(=O)NCCc1ccc(S(N)(=O)=O)cc1	-6.9%	-8.7%
54	COc1ccc2occ(NC(C)=O)c2c1	?	-2.3%
55	COc1ccc(CCN(C)C2CCCN(S(=O)(=O)C(C)C)C2)cc1OC (stereo unspecified)	-12.4%	0.4%
56	O=C(CSc1nc(-c2ccccc2)c(-c2ccccc2)[nH]1)NCC1CCCO1 (stereo unspecified)	7.3%	-6.6%
57	C=CCNC(=O)c1c(Br)cnn1-c1ccc(C)cc1	-26.1%	-13.5%
58	C=C1OC(CO)(n2cnc3c(N)ncnc32)C(O)C1O (stereo unspecified)	3.6%	20.3%
59	C=C(C)C1CC=C(C)/C(=N/NC(=O)COc2ccccc2Cl)C1 (stereo unspecified)	-1.1%	-3.8%
60	CCC(CC)C(=O)NCc1ccccc1Cl	-17.3%	-11.2%
61	COCCNC(=O)c1cccc(NS(=O)(=O)c2cccc3cccnc23)c1	4.8%	2.9%
62	CCCOc1ccccc1/C=N/NC(=O)C1CC1	-27.8%	-0.3%
63	CCOc1ccc(-c2cc(CCCC(=O)NCCCOC)no2)cc1	-12.0%	-3.4%
64	Cc1ccc(CC(=O)Nc2cc(C)ccn2)cc1	0.7%	-1.3%
65	CN1CCN(CCCNC(=O)c2ccc(Cn3c(=S)[nH]c4ccc(Br)cc4c3=O)cc2)CC1	?	-1.8%
66	O=C(c1ccco1)N1CCN(CCCCOc2ccc(F)cc2)CC1	?	-2.5%
67	COc1cccc(CN2CCN(c3nc4nonc4nc3N3CCCCC3)CC2=O)c1	?	-9.8%
68	CS(=O)(=O)c1cnc2c(-c3ccc(F)cc3)cnn2c1N	-13.6%	-3.8%
69	Cc1c(Cl)cccc1NC(=O)CCCN1C(=O)c2cccnc2C1=O	4.3%	-5.6%
70	CCN(CC(=O)Nc1c(F)cccc1F)C(=O)CCN1C(=O)C2CCCCC2C1=O (stereo unspecified)	2.1%	-17.6%
71	CCCn1nnc(NC(=O)c2cccnc2Cl)n1	-6.4%	-2.3%
72	O=C(c1cn(Cc2ccccc2)nc1-c1cccnc1)N1CCc2ccccc2C1	?	2.9%
73	CSCCC(=O)N1CC[C@@H](N2CCN(c3ccccc3F)CC2)[C@H](O)C1	-0.6%	-6.7%
74	CCOc1ccccc1C(=O)OCC(=O)Nc1cc(Cl)ccc1Oc1ccccc1	-19.0%	-9.4%
75	COc1cccc(N2CCN(C(=O)C3CCN(S(=O)(=O)c4ccc5c(c4)CC(C)N5C(C)=O)CC3)CC2)c1 (stereo unspecified)	?	-17.0%
76	O=C(COc1coc(CN2CCN(c3ccc(F)cc3)CC2)cc1=O)NC1CCCC1	?	-0.7%
77	COCCN1CCc2nc(SCC(=O)Nc3ccc(Br)cc3)[nH]c(=O)c2C1	-1.4%	-1.2%
78	CC(C)(C)C(=O)Nc1ccc(C(=O)NNC(=O)Cc2ccccc2)cc1	2.1%	-3.6%
79	CCOC(=O)c1ccc(NC(=O)C2CCN(S(=O)(=O)CC)CC2)cc1	-16.5%	4.6%
80	CCOC(=O)C1(CC/C(C)=N\NC(N)=O)CC(C)(C)OC1=O (stereo unspecified)	20.8%	-5.8%
81	CCn1cc(CCCC(=O)NCc2ccccc2OC)c2ccccc21	-28.9%	-2.5%
82	CCCCc1cc(=O)oc2c(CN3CCCC3)c(O)c(Cl)cc12	-23.1%	-13.8%
83	CSc1ncc(S(=O)(=O)c2ccccc2)c(=O)[nH]1	0.2%	-0.4%
84	CCC(CCC(=O)Nc1ccn(-c2ccccc2)n1)C(=O)O (stereo unspecified)	14.6%	-5.5%
85	O=C(O)CC1CCS(=O)(=O)C1 (stereo unspecified)	1.2%	0.7%
86	CCOC(=O)C(NCc1ccco1)(NC(=O)c1ccccc1)C(F)(F)F (stereo unspecified)	17.3%	-7.4%
87	Cc1cccc(NC(=O)N2CCCC2C(=O)Nc2ccccc2)c1 (stereo unspecified)	?	-5.3%
88	Cc1ccc(NC(=O)COC(=O)Cn2c(C)csc2=O)cc1S(=O)(=O)N1CCOCC1	-24.4%	/
89	CC(N=C1NS(=O)(=O)c2ccccc21)C(=O)Nc1ccc(F)cc1Cl (stereo unspecified)	2.9%	-1.3%
90	CCCCC(CC)COC(=O)c1ccc(N(C)C)cc1 (stereo unspecified)	-19.9%&-19.6%	-5.5%&-8.4%
91	Cc1noc(C)c1C(=O)N1CCC(Cc2ccccc2)CC1	?	-1.3%
92	O=C1N/C(=N\N=C\c2cccs2)SC1Cc1ccc(Cl)cc1 (stereo unspecified)	?	-11.7%
93	CCOc1ccc(-c2nnc(SCC(=O)N(CC)CC)n2N)cc1	-23.9%	-3.5%
94	COc1ccc(CN(C(=O)CCC(=O)N2CCCCC2)c2nccs2)cc1OC	-6.2%	-4.0%
95	O=C1OC(C(=O)Nc2ccccc2)Cc2ccccc21 (stereo unspecified)	-1.8%	-9.7%
96	COc1ccccc1NC(=O)Cn1nc(Cc2cccnc2)c2ccccc2c1=O	-2.3%	-9.1%

Next part:
cpd	Compound	TDP1 cell CPT	GCN5L2 inh
97	Cn1cccc1CC(=O)NNC(=O)Nc1ccccc1F	-5.4%	-0.2%
98	Oc1ccc(C(=S)N2CCCCC2)cc1Cl	-2.7%	-1.6%
99	Cc1ccc(OCc2nnc(NC(=O)c3cccnc3)s2)cc1	-15.5%	-7.8%
100	COC(=O)C(NS(=O)(=O)c1ccc(NC(C)=O)cc1)C(C)C (stereo unspecified)	-11.4%	-3.1%
101	CCOC(=O)c1c(C)[nH]c(C(=O)OC(C)C(=O)NC2CCCCC2C)c1C (stereo unspecified)	?	-1.3%
102	COc1ccc(S(=O)(=O)NC(C)C(=O)NCc2ccccn2)cc1Cl (stereo unspecified)	-0.2%	-1.5%
103	Cn1c(=O)nc2n(Cc3ccccc3)c3cccc(Cl)c3cc-2c1=O	?	6.0%
104	COCc1ccc(C(=O)N2CCN(CC(=O)N3CCCC3)CC2)cc1	-5.5%	-1.9%

Copied from the list.
GCN5L2 inh, cpd 101 stands at -1.3%
GCN5L2 inh, cpd 98 stands at -1.6%
GCN5L2 inh, cpd 103 stands at 6.0%

Full records, quoted from the list. Order of screens: TDP1 cell CPT, GCN5L2 inh
`Oc1ccc(C(=S)N2CCCCC2)cc1Cl` is listed as -2.7%, -1.6%
`Cc1ccc(OCc2nnc(NC(=O)c3cccnc3)s2)cc1` is listed as -15.5%, -7.8%
`CCOC(=O)c1c(C)[nH]c(C(=O)OC(C)C(=O)NC2CCCCC2C)c1C` (stereo unspecified) is listed as ?, -1.3%
`Cn1cccc1CC(=O)NNC(=O)Nc1ccccc1F` is listed as -5.4%, -0.2%
`COCc1ccc(C(=O)N2CCN(CC(=O)N3CCCC3)CC2)cc1` is listed as -5.5%, -1.9%

Screening data (PubChem)
